From PubChem
2A firefly: lowers the firefly signal of an FMDV 2A StopGo reporter. HEK cells with a luciferase reporter of 2A StopGo recoding. Potency, µM (top dose mostly 57.5 µM), for inactives: at the top dose signal change, negative = less light. hit rate 0.23% among 120,000; active = well fitted falling curve with a large enough effect; inconclusive = small, poorly fitted or top-dose-only effect; inactive = no such curve, though single readings can be large or run the other way; further: nearly all actives have a fitted effect of over 60% in size; overnight with compound
StopGo RLuc: lowers the Renilla signal of an FMDV 2A StopGo reporter; HEK cells with a luciferase reporter of 2A StopGo recoding; hit rate 0.32% among 120,000; Potency, µM (highest dose often 57.5 µM), for the others: top-dose signal change, negative = less light; active means well fitted falling curve with a large enough effect; inconclusive means small, poorly fitted or top-dose-only effect; inactive means no such curve, though single readings can be large or run the other way; further: nearly all actives have a fitted effect of over 55% in size; overnight with compound
Active calls of the source: *; ? = inconclusive; & = joins results of further samples; [ ] = another dose, or the depositor's remark. On the % scale 0 is the no-effect control and ±100 the full control effect; potency means the concentration at half of the fitted maximal effect.

| mol | 2A firefly | StopGo RLuc |
| --- | --- | --- |
| CCn1nc(C)c(NC(=O)c2cc3sccc3n2Cc2ccccc2)c1C | -2.1% | -12.4% |
| CS(=O)(=O)c1ccc(-c2nnc(NC(=O)c3ccc4c(c3)OCCO4)o2)cc1 | -19.9% | -8.2% |
| CCc1ccc(CNC(=O)C2CCCN(c3nnc(C)c4c(C)n(-c5ccc(OC)cc5)nc34)C2)cc1 (stereo not given) | 17.7% | 60.2%[activator] |
| CC(C)c1ccc2oc(-c3cccc(NC(=O)c4cccnc4)c3)nc2c1 | 22.9% | 6.9% |
| O=C(Nc1ccc(Br)cn1)Nc1ccccc1Cl | 72.7%[activator] | 5.8% |
| O=C(OCC(=O)N1CCCC1)c1cc(=O)c2ccccc2o1 | -2.7% | 15.7% |
| NC(=O)C1CCN(C(=O)c2cn(Cc3ccccc3)c3ccccc23)CC1 | -5.6% | 64.9%[activator] |
| CCC(C)c1ccc(NC(=O)c2nccnc2N)cc1 (stereo not given) | 0.0% | 3.6% |
| COc1cccc(C(=O)NC2CCCCC2)c1 | 159.1%[activator] | 9.1% |
| COC(=O)C1=CN(Cc2cccs2)C=C(C(=O)OC)C1c1cccc(OC)c1OC | -8.1% | -5.3% |
| c1ccc(Nc2cccc(Nc3nc(CN4CCOCC4)nc4sc5c(c34)CCC5)c2)cc1 | -17.5% | -18.3% |
| COc1ccc(C2CCCCCN2C(=O)C2CCN(S(=O)(=O)c3ccc(Cl)cc3)CC2)cc1 (stereo not given) | -8.9% | -7.7% |
| Cc1ccsc1CNC(=O)Cc1ccc(F)cc1 | 100.8%[activator] | -10.3% |
| O=C(CSc1nnc(-c2ccncc2)n1C1CC1)Nc1ccccc1C(=O)NC1CC1 | 13.9% | 1.5% |
| O=C(NCc1cccc(F)c1)C1CCN(c2nc3ccccc3nc2C(F)(F)F)CC1 | -20.0% | -10.1% |
| CCCCCOc1ccc(/C=C2\Cc3ccccc3C2=O)cc1 | 15.0% | 4.9% |
| COc1ccc(-c2nc(CS(=O)Cc3ccccc3C)cs2)c(OC)c1 (stereo not given) | 7.2% | 61.4%[activator] |
| Cc1ccc(NCc2c(C#N)c3ccccc3n2C)cc1 | 116.8%[activator] | 89.9%[activator] |
| O=c1[nH]c(N2CCN(c3ccc(F)cc3)CC2)nc2c1CCC2 | 11.0% | 3.9% |
| COc1cccc(NC(=O)c2oc3ccccc3c2NC(=O)c2cc3ccccc3o2)c1 | 0.6% | -8.9% |
| Cc1ccc(-n2ncc(C(=O)Nc3ccc4c(c3)OCO4)c2C2CCN(C(=O)OC(C)(C)C)CC2)cc1 | 40.8%[activator] | -0.8% |
| Cc1ccc(C(=O)NCc2ccc(N3CCCC3)nc2)cc1F | 11.6% | -3.6% |
| Cc1cc(C)c2c(=O)cc(C(=O)N(Cc3ccccc3)Cc3ccco3)oc2c1 | -8.9% | 89.3%[activator] |
| COc1cccc(C(=O)N2CCC(NS(=O)(=O)c3cccs3)CC2)c1 | 9.4% | 2.3% |
| N#Cc1cccc(COC(=O)c2ccccc2SCc2ccco2)c1 | 0.0% | 10.9% |
| Fc1cc(NC(=S)N2CCc3ccccc32)ccc1Cl | 15.0% | -20.3% |
| CCCn1c(=O)c2sccc2n2c(CCCC(=O)NCCOC)nnc12 | 0.0% | -10.9% |
| COc1ccc(OC(=O)c2cnccn2)cc1 | 10.9% | -5.2% |
| COc1cccc2c1Oc1ncccc1N(c1ccc(C(=O)NCc3ccccc3C)s1)C2 | -17.7% | -5.8% |
| COc1ccc(-c2nc3cc(NC(=O)c4ccc(C)cc4)ccc3o2)cc1Cl | -33.0% | ? |

Single records, from the list above.
Record of CS(=O)(=O)c1ccc(-c2nnc(NC(=O)c3ccc4c(c3)OCCO4)o2)cc1 : 2A firefly = -19.9%; StopGo RLuc = -8.2%
Record of COc1cccc(C(=O)NC2CCCCC2)c1 : 2A firefly = 159.1%[activator]; StopGo RLuc = 9.1%
Record of COc1ccc(-c2nc3cc(NC(=O)c4ccc(C)cc4)ccc3o2)cc1Cl : 2A firefly = -33.0%; StopGo RLuc = ?

Carrying on:
| mol | 2A firefly | StopGo RLuc |
| --- | --- | --- |
| CN1CCN(c2oc(-c3ccccc3)nc2C#N)CC1 | 0.0% | -0.5% |
| COc1ccc(CNC(=O)CCCN2C(=O)CSc3c2c(C)nn3-c2ccccc2)c(OC)c1 | -2.1% | 12.2% |
| COc1nc2ccccc2nc1N1CCC(C(=O)Nc2cccc(C)c2)CC1 | 3.0% | -2.3% |
| COc1ccc(NC(=O)c2ncoc2-c2ccco2)cc1Cl | 59.4%&0.0%[activator] | -0.6%&-14.0% |
| COc1ccc2[nH]cc(CCN=C(NC(=O)c3ccccc3OC)Nc3nc(C)cc(C)n3)c2c1 | ? | -12.5% |
| CCN(CC)S(=O)(=O)c1ccc(C(=O)N(c2ccccc2)c2nc(C)cs2)cc1 | 19.6% | -2.1% |
| Cc1ccc(Cl)cc1NC(=O)COc1ncnc2ccccc12 | -3.0% | -6.6% |
| CCN(CC)CCNC(=O)c1ccc(N)cc1 | 3.9% | 8.4%&5.9% |
| CCOc1ccc(S(=O)(=O)NCCc2sc(-c3ccc(OC)cc3)nc2C)cc1 | 62.2%[activator] | 185.7%[activator] |
| COc1cccc(NC(=O)C(Cc2ccccc2)NS(=O)(=O)c2ccc3c(c2)c(=O)n(C)c(=O)n3C)c1 (stereo not given) | 0.0% | 10.7% |
| COc1ccc(NC(=O)N2CCC(n3c(C)nc4cccnc43)CC2)cc1OC | -19.7% | 3.2% |
| C=CCc1cccc2cc(-c3nc4ccc(C)cc4[nH]3)c(=O)oc12 | 161.3%[activator] | -7.8% |
| Cc1ccc(-n2nc(C)c3nc(CCC(=O)Nc4ccc(F)cc4)c(=O)n(C)c32)cc1 | -5.4% | -7.8% |
| CCOc1ccc(CC(=O)N2CCc3cc(OC)c(OC)cc3C2COc2ccc3c(C)cc(=O)oc3c2)cc1 (stereo not given) | -9.7% | 8.9% |
| COc1cc(Br)c(C2CC(=O)NC(C)=C2C(=O)OCc2ccc(C)cc2)cc1OC (stereo not given) | 5.5% | 17.8% |
| Cc1cccc(NC(=O)c2cc3c(=O)n(Cc4ccco4)ccc3nc2C)c1 | -14.6% | 7.6% |
| Cc1cc(OCc2nn[nH]n2)c2c(C)c(C)c(=O)oc2c1 | 2.3% | -9.9% |
| CCN(Cc1ccc(OC)c(F)c1)C(=O)COC(=O)c1nn(CC)c(=O)c2ccccc12 | 1.5% | -3.0% |
| COC(=O)C1=C(CN2CCN(c3ccccn3)CC2)NC(=O)NC1c1ccc(C)cc1 (stereo not given) | 32.2%[activator] | 7.6% |
| CCOC(=O)c1cccc(NC(=O)CCn2c(-c3ccc(F)cc3)cc(C(=O)OCC)c2C)c1 | -15.2% | -6.6% |
| CCNC(=O)NC(=O)C(C)Nc1ccc2oc(C3CC3)nc2c1 (stereo not given) | 0.0% | -3.1% |
| Cc1cccc(C)c1NC(=O)CSc1nc(-c2ccccc2)nc2c1Cc1c(CO)cnc(C)c1O2 | -14.5% | -6.5% |
| O=C(c1ccc(-n2cccn2)cc1)N1CCCC1c1ccc2c(c1)OCCCO2 (stereo not given) | 0.0% | 31.3%[activator] |
| O=C(Nc1ccc(Oc2cnccn2)cc1)c1cc(F)cc(F)c1 | 71.7%[activator] | -1.4% |
| CCc1ccc(CNC(=O)c2cc3c(=O)oc4ccc(C)cc4c3s2)cc1 | -24.6% | -13.8% |
| COc1ccc(-c2nc3cc(NC(=O)c4cc(Cl)ccc4OC)ccc3o2)cc1 | 132.5%[activator] | 8.4% |
| CCCCCCCCS(=O)CCCCCCCC | 8.5% | 14.1% |
| c1ccc(-n2nnnc2C2(NC3CCCCC3)CCCC2)cc1 | 5.7% | 63.3%[activator] |
| Cc1nc2c(c(C)nn2-c2ccccc2)c(C)c1CCC(=O)NCCc1ccc(Cl)cc1 | -9.0% | -11.3% |
| Cc1nn(CC(=O)N2CCCCC2)c(C)c1S(=O)(=O)NC(C)(C)C | -3.2% | 8.6% |

Part of the list above in a different format.
Cc1ccc(Cl)cc1NC(=O)COc1ncnc2ccccc12
- 2A firefly: -3.0%
- StopGo RLuc: -6.6%
CN1CCN(c2oc(-c3ccccc3)nc2C#N)CC1
- 2A firefly: 0.0%
- StopGo RLuc: -0.5%
CCNC(=O)NC(=O)C(C)Nc1ccc2oc(C3CC3)nc2c1 (stereo not given)
- 2A firefly: 0.0%
- StopGo RLuc: -3.1%
Cc1ccc(-n2nc(C)c3nc(CCC(=O)Nc4ccc(F)cc4)c(=O)n(C)c32)cc1
- 2A firefly: -5.4%
- StopGo RLuc: -7.8%

Further compounds follow:
| mol | 2A firefly | StopGo RLuc |
| --- | --- | --- |
| O=C(CSc1nc2ccccc2c2nc(-c3ccccc3)nn12)Nc1ccc(Br)cc1 | -19.0% | -12.6% |
| O=C(Cn1c(=O)n(Cc2ccco2)c(=O)c2ccc(C(=O)NC3CCCC3)cc21)Nc1ccc(F)cc1 | 5.9% | 10.0% |
| COc1ccc(S(=O)(=O)Nc2ccc(NC(C)=O)cc2)cc1NC(C)=O | -11.5% | -1.2% |
| COC(=O)c1c(C)[nH]c(C(=O)N2CCCC2c2cc(OC)ccc2OC)c1C (stereo not given) | 44.8%[activator] | 201.9%[activator] |
| O=C(CN1C(=O)NC(Cc2c[nH]c3ccccc23)C1=O)Nc1ccc(Br)cc1F (stereo not given) | -14.2% | -15.6% |
| Cc1ccc(-n2c(=O)c3oc4ccccc4c3n(Cc3ccccc3F)c2=O)cc1C | -1.7% | -16.2% |
| COc1ccc(C(=O)NC2CCC(C)CC2)cc1S(=O)(=O)N(C)C (stereo not given) | 135.1%[activator] | 24.9% |
| COc1ccc(-c2c(C)nn3c(C(F)(F)F)cc(-c4ccc(C)cc4)nc23)cc1 | -12.7% | -12.6% |
| Cn1cnc2c1c(=O)n(CCCSCc1ccc(F)cc1Cl)c(=O)n2C | 20.0% | 5.3% |
| CCc1cccc(NC(=O)Cn2c(=O)n(CC3CCC(C(=O)NC)CC3)c(=O)c3sccc32)c1 (stereo not given) | -3.6% | -2.5% |
| Cc1ccc(S(=O)(=O)Cc2ccc(C(=O)NCCc3ccc(Cl)cc3)o2)cc1 | 0.0% | 2.1% |
| Cc1cc(C)c2c(c1)/C(=N/Nc1nc3ccccc3[nH]1)CCC2 | 4.47µM* | ? |
| Cc1nn(C)c(C(=O)Nc2c(C)nn(C)c2C)c1Br | 3.6% | -14.8% |
| O=C(CSc1ccccc1)N1CCc2c([nH]c3ccccc23)C1c1ccc(F)cc1 (stereo not given) | -4.5% | -20.8% |
| COc1ccccc1CNC(=O)C(CC(C)C)N1Cc2ccccc2C1=O (stereo not given) | -0.2% | 37.2%[activator] |
| COc1cccc2cc(S(=O)(=O)c3ccc(Cl)c(Cl)c3)c(=O)oc12 | 0.2% | 2.9% |
| CCOc1cc(CNC(=O)Cn2c(-c3cccs3)cc3cc(F)ccc32)ccc1OC | -6.5% | -11.0% |
| Cc1ccccc1NCCC(=O)N(C)Cc1ccc(C(=O)NCC(F)(F)F)cc1 | ? | ? |
| NC(=O)c1ccc(C(=O)OCc2nc3ccccc3o2)cc1 | -6.4% | -6.9% |
| CSc1ccc(/C=C2\Cc3ccccc3C2=O)cc1 | 130.7%[activator] | 81.1%[activator] |
| Cc1ccc(OCCC(=O)OCC(=O)Nc2ccc(C)cc2Cl)cc1 | -9.6% | -11.4% |
| COCCCNC(=O)CN1C(=O)CSc2ccc(S(=O)(=O)N3CCOCC3)cc21 | 32.3%[activator] | 7.9% |
| CCC(CO)Nc1ncc2cc3ccccc3nc2c1C#N (stereo not given) | 0.0% | 53.9%[activator] |
| O=S(=O)(CCc1ccccc1Cl)c1ccccc1 | 19.5% | 30.2%[activator] |
| Cc1ccc(S(=O)(=O)Cc2ccc(C(=O)N3CCN(c4cccc(Cl)c4)CC3)o2)cc1 | -16.7% | 15.8% |
| COc1ccc(OCCOC(=O)COc2ccc3ccccc3c2)cc1 | 0.0% | -0.8% |
| CCOc1ccc(N(CC(=O)Nc2ccccc2CC)S(=O)(=O)c2c(C)noc2C)cc1 | 8.3% | 39.6%[activator] |
| CCOc1ccc(-c2[nH]c3c(c2-c2ccc(OC)cc2)c(=O)[nH]c(=O)n3C)cc1OC | 6.7% | 8.4% |
| CCCNC(=O)Cn1nc(-c2cccc([N+](=O)[O-])c2)c2ccccc2c1=O | -11.4% | -17.9% |
| Cc1c(O)ccc2c(CN(C)CCOc3ccccc3F)cc(=O)oc12 | -22.3% | -21.2% |
| CSc1nc2c([nH]c3ccccc32)c(=O)n1-c1ccc(F)cc1 | 3.6% | -3.7% |
| COc1cc(OC)c(NC(=O)N2CCC(CN3CCOCC3)CC2)cc1Cl | 0.2% | 6.2% |
